# High-throughput results as filed in PubChem.
# VCAM-1 rise = enhancers of VCAM-1 display on endothelial cells, cell-based, plate reader, pooled HUVEC, TNFa stimulus (AID 455). HUVEC TNFa-induced VCAM-1 immunofluorescence, plate reader; numbers were filed only for top-ranked candidate wells. augmentation, % at 5 µM. hit rate 0.2% among 10,000;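 active means a compound raising TNF-alpha-driven VCAM-1 surface staining, with its hit status upheld on visual or statistical review; inactive means the rest, including hits rejected on review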;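 further: 0% = TNFa with vehicle and 100% = strongest image-checked hit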
# 26S disassembly = blocks ATP-dependent breakdown of the yeast 26S proteasome; anti-FLAG beads, GFP-proteasome disassembly, flow cytometry; inhibition of disassembly, % (test concentration not listed); hit rate 0.2% among 24,000; AID 751;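 active means above 40%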;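 further: plate controls were ATP control with full disassembly for no effect and ATP-gamma-S intact proteasomes for full effect; higher percent means more bead fluorescence retained so stronger block of disassembly; stock transfer was 100 nL into about 10 µL; wells with too few beads may also be inconclusive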
# * hit, by the source's call; i = inactive; / = no result given. Not all compounds are listed; count on the stated rates, not on these rows.
VCAM-1 rise | 26S disassembly | structure
/ | -0.5 | COc1cc(OC)c(NC(=O)CCc2nc(-c3ccc(C)cc3)no2)cc1Cl
i | -1.1 | COc1cccc(-c2csc3nc[nH]c(=O)c23)c1
i | 0.3 | CN(C)C(=O)Oc1ccc[n+](C)c1
i | 1.1 | CCn1c(=O)n(CC(=O)N(C)Cc2ccccc2)c(=O)c2ccccc21
i | -0.2 | COC(=O)CN(c1ccc(OC)cc1)S(=O)(=O)c1ccc(OC)c(OC)c1
/ | -4.3 | Cc1cc(Nc2ccc(F)cc2F)n2ncnc2n1
/ | -0.3 | Cc1oc(-c2ccccc2Cl)nc1CSCC(=O)NC1CC1
i | -1.1 | CC1(C)Cc2c(C#N)c(SCCC#N)nc(N3CCOCC3)c2CS1
i | -1.4 | CCCn1c(NC(=O)C2COc3ccccc3O2)nc2ccccc21 (stereo not given)
i | 0.2 | CSc1oc(-c2ccccc2)nc1S(=O)(=O)c1ccc(F)cc1
i | 0.8 | Cc1cccc(N2CCN(S(=O)(=O)c3ccc4c(c3)CCC(=O)N4)CC2C)c1 (stereo not given)
/ | -1.3 | Cn1c(C(=O)NCCN2CCOCC2)cc2c(=O)n(C)c3ccccc3c21
/ | -0.8 | Cn1c(C(=O)NCCN2CCc3ccccc3C2)cc2c(=O)[nH]c3ccccc3c21
/ | -0.5 | CCn1c(=O)cc(C(=O)OC)sc1=Nc1ccc(F)c(F)c1
/ | -0.1 | CCN(C(=O)COc1cc(=O)n(C)c2ccccc12)c1cccc(Cl)c1
/ | 0.9 | COc1cccc(C2=NOC(C(=O)Nc3cc(OC)c(OC)c(OC)c3)C2)c1 (stereo not given)
/ | -1.1 | Cc1cc(NC(=O)CSc2nc3ccsc3c(=O)n2CCCCC(=O)O)no1
/ | 0.0 | Cc1ccccc1NC(=O)Cn1cccc1
i | 0.4 | COc1cc(C(=O)Nc2ccc3c(c2)C(=O)N(CCC(=O)O)C3=O)cc(OC)c1OC
i | -0.1 | O=C(c1ccccc1)c1ccc(N2CCOCC2)c(NC(=O)c2ccco2)c1

# Entries of single compounds, looked up by structure. Screens in order: VCAM-1 rise	26S disassembly
# `Cc1cccc(N2CCN(S(=O)(=O)c3ccc4c(c3)CCC(=O)N4)CC2C)c1` (stereo not given) as listed: i	0.8
# `COc1cccc(C2=NOC(C(=O)Nc3cc(OC)c(OC)c(OC)c3)C2)c1` (stereo not given) as listed: /	0.9
# `CCCn1c(NC(=O)C2COc3ccccc3O2)nc2ccccc21` (stereo not given) as listed: i	-1.4
# `Cc1ccccc1NC(=O)Cn1cccc1` as listed: /	0.0
# `Cc1cc(Nc2ccc(F)cc2F)n2ncnc2n1` as listed: /	-4.3

# Next records follow.
VCAM-1 rise | 26S disassembly | structure
/ | 1.0 | Cc1nc2ncnn2c(C)c1CCC(=O)NCc1ccc2c(c1)OCO2
i | 7.5 | COc1ccccc1NC(=O)NCc1ccc2c(c1)OCO2
/ | -1.7 | CC1CCC(NC(=O)c2cc3c(=O)n(C)c4ccccc4c3n2C)CC1 (stereo not given)
/ | -0.1 | COCCCNC(=O)CC(NS(=O)(=O)c1ccc(C)cc1)c1ccco1 (stereo not given)
/ | -0.3 | COc1ccc(S(=O)(=O)N2CCCC2C(=O)Nc2ccc(C(C)=O)cc2)cc1 (stereo not given)
/ | -1.2 | Cn1c(C(=O)N2CCC(C(=O)N3CCN(Cc4ccc5c(c4)OCO5)CC3)CC2)cc2sccc21
/ | -0.3 | CCOC(=O)C(NC(=O)CC)(Nc1ccc(S(=O)(=O)Nc2cc(C)on2)cc1)C(F)(F)F (stereo not given)
i | -4.0 | COc1cccc(Nc2nnc(SCC(=O)N3CC(C)OC(C)C3)s2)c1 (stereo not given)
62 | 1.6 | CS(=O)(=O)Nc1ccccc1C(=O)O
i | -1.4 | COc1ccc(C2C3=C(CC(C)(C)CC3=O)Oc3ncn4nc(-c5cccnc5)nc4c32)cc1 (stereo not given)
/ | -1.1 | COc1ccc(CNC(=O)C2CCN(S(=O)(=O)c3cccc4cccnc34)CC2)cc1
/ | -0.7 | COc1ccc(OC)c(C2=NOC(C(=O)NCC3CCCO3)C2)c1 (stereo not given)
/ | -0.7 | O=C(NCc1ccco1)c1ccc2c(=O)n(Cc3ccco3)c(SCC(=O)N3CCCC3)nc2c1
i | -0.6 | CCn1cc(C(=O)NCCC2=CCCCC2)c(=O)c2cc(S(=O)(=O)N(C)C)ccc21
i | 0.0 | CC(NC(=O)Nc1ccccc1)C(c1cccs1)N1CCOCC1 (stereo not given)
/ | -1.1 | Cn1c(=O)[nH]c(=O)c2c1nc(CN1CCOCC1)n2Cc1ccccc1
/ | -8.8 | CCOC(=O)C1CCN(C(=O)CN2C(=O)C(CC)Oc3ccccc32)CC1 (stereo not given)
i | 1.8 | Cn1c(=O)c2c(nc(SCCOc3ccc4ccc(=O)oc4c3)n2C)n(C)c1=O
/ | 1.9 | CSCCC(NC=C1C(=O)OC(C)(C)OC1=O)C(=O)O (stereo not given)
/ | -0.7 | CCn1c(=S)sc2c(=O)[nH]c(C)nc21
/ | -1.3 | O=C(NCc1ccccn1)C1CC(=O)N(C2CCCC2)C1 (stereo not given)
/ | 2.3 | Cc1ccc(-c2noc(CCC(=O)Nc3cc(C)ccn3)n2)cc1
i | 1.4 | Cc1ccc(S(=O)(=O)N[C@@H](C)C(=O)N2CCC(C(=O)N3CCC[C@H]3C(=O)O)CC2)cc1
i | -4.0 | O=C(Nc1ccccc1)N(CCCN1CCOCC1)Cc1cc2cc3c(cc2[nH]c1=O)OCCO3
i | 1.2 | O=C1CN(Cc2ccccc2)C(=NCc2ccco2)S1
/ | 0.5 | COc1cccc(CNc2ccc3c(c2)ncn3C(C)C)c1OC
/ | -0.6 | COc1cccc(C(=O)N2CCN(c3ncccn3)CC2)c1
i | -2.3 | CCOC(=O)C1CCCN(c2c(N3CCN(c4ccccn4)CC3)c(=O)c2=O)C1 (stereo not given)
i | 1.5 | O=C(O)c1oc2ccccc2c1-n1cccc1
i | 0.3 | Cc1nn(-c2ccccc2)c2[nH]c(C(F)(F)F)cc(=O)c12
/ | 2.2 | Cc1c(C(=O)N2CCc3ccccc3C2)sc2nc(-c3ccccc3)cn12
i | 0.9 | O=C(Nc1cccnc1)c1cccc(NC(=O)c2ccco2)c1
/ | -1.1 | O=C(CCNC(=O)c1ccc(Br)o1)NCc1ccccc1Cl
i | 0.2 | CCCc1nnc2n1N=C(c1ccc(-c3cc(Cl)ccc3Cl)o1)CS2
/ | 9.8 | CC(=O)c1c(C)[nH]c(C(=O)NCCC2=CCCCC2)c1C
/ | -6.0 | CCN1CCN(c2cc(=O)n(-c3cc(Cl)ccc3C)c(=O)[nH]2)CC1
/ | 0.8 | CN1C(=O)CSc2ccc(NC(=O)NCc3ccco3)cc21
/ | -1.3 | O=C(c1ccccc1)c1c[nH]c2cc3c(cc2c1=O)OCCO3
i | -1.5 | Cn1c(C(=O)Nc2ccc3c(c2)OCO3)cc2c(=O)n(C)c3ccccc3c21
20 | -3.7 | Cc1cc(C)n(C(=O)CCCCCC(=O)n2nc(C)cc2C)n1
/ | -3.9 | CC(C)C(=O)NC(C)C(c1cccs1)N1CCOCC1 (stereo not given)
/ | -2.7 | Cc1ccccc1-c1nc(CN2CCC(C(=O)NCc3ccco3)CC2)c(C)o1
/ | 0.9 | O=C(CN1CC(=O)Oc2ccccc21)NCc1ccco1
/ | 5.8 | Cc1csc(NC(=O)C2CCCN(S(=O)(=O)c3ccc(Br)s3)C2)n1 (stereo not given)
/ | 0.7 | CCc1cc(=O)oc2cc(C)cc(O)c12
/ | -1.4 | CC(=O)Oc1ccc2oc(=O)c3c(c2c1)CCCN3C(=O)CN1CCN(c2ncccn2)CC1
i | 0.5 | CCOC(=O)C1=C(O)C(=O)N(c2ccc(S(N)(=O)=O)cc2)C1c1ccccc1 (stereo not given)
/ | 0.5 | COc1ccc(S(=O)(=O)N2CCN(CC(=O)Nc3cccc(F)c3)CC2)cc1
/ | 1.2 | COCCN1C(=O)c2ccccc2C(C(=O)NCCN(C)C)C1c1ccc(F)cc1 (stereo not given)
i | 0.5 | O=C(OCC(=O)c1ccccc1Br)c1ccccn1
i | 1.9 | COC(=O)c1ccc(CSc2nc3ccccc3s2)o1
i | 0.2 | CC1=C(C#N)C(=O)NC(C)(C)C1
/ | 1.4 | O=C(NCCCN1CCCCCC1)c1ccc2c(c1)NC(=O)C(N1CCOCC1)S2 (stereo not given)
/ | 0.4 | COc1cccc(-n2nnc3c(=O)n(CC(=O)N4CCCc5ccccc54)cnc32)c1
/ | -4.7 | O=C(O)c1ccc(CSc2nnc(COc3ccc(Cl)cc3Cl)o2)cc1
/ | 0.6 | COc1cccc(C(=O)N(CN2CCCC2=O)c2cccc(Cl)c2)c1OC
/ | 2.7 | Cc1cc2ccccc2c(=O)n1CC(=O)N1CCN(c2cccc(Cl)c2)CC1
/ | 5.9 | C=CCn1c(NC(C)c2cc(Cl)ccc2O)nc2ccccc21 (stereo not given)
/ | 2.0 | O=C(CNS(=O)(=O)c1cccc2nsnc12)NCc1ccc(Cl)cc1
i | 0.1 | O=C(Cn1ncc2c1-c1ccccc1OC2)Nc1ccc(Cl)cn1

# Carrying on:
VCAM-1 rise | 26S disassembly | structure
/ | 0.2 | COc1ccccc1S(=O)(=O)Cc1ccc(C(=O)NCCN(C)C)o1
i | -0.2 | COc1cc(C2C(C#N)=C(N)OC3=C2C(=O)CCC3)ccc1OC(=O)N1CCOCC1 (stereo not given)
i | 2.3 | O=C(CN1CCC(c2nc3ccccc3s2)CC1)NCc1cccs1
i | -3.2 | COc1cccc(OCc2nnc(SCC(=O)OCc3ccccc3)o2)c1
/ | 0.2 | CCCC(O)(CCN1CCOCC1)c1ccc(Br)cc1 (stereo not given)
i | -1.9 | CC1CCN(S(=O)(=O)c2cn(CC(=O)N3CCN(C)CC3)c(=O)c3ccccc23)CC1
i | -1.2 | CCNc1nc(N2CCCCC2)nc(-n2nnc(C(=O)OCC)c2C)n1
i | -1.2 | Cc1cccc(NC2SC(=O)N(c3ccccc3)C2=O)c1 (stereo not given)
i | 1.6 | CCC1CCCCN1CCCNC(=O)CC1Oc2ccc(C)cc2NC1=O (stereo not given)
/ | 4.6 | COC(=O)Cn1c(CCC(=O)O)ccc1-c1ccccc1
i | 0.9 | CCC1(C)Cc2c(sc3nc(SCC(=O)O)[nH]c(=O)c23)CO1 (stereo not given)
/ | 1.1 | Nc1cc(-c2nn[nH]n2)ccc1F
i | 0.6 | Cc1cccc(OCc2nc(C#N)c(NCCN(C)C)o2)c1
/ | -0.1 | O=C1CCc2cc(S(=O)(=O)NCCC(=O)N3CCN(c4cccc(Cl)c4)CC3)ccc2N1
/ | 0.1 | CS(=O)(=O)c1nc(-c2cccs2)cc(C(F)(F)F)n1
i | -1.8 | COc1ccc(CCNC(=O)c2cc(-c3cc(C)c(C)cc3O)n[nH]2)cc1OC
/ | -0.5 | O=C(CN1CCN(C(=O)c2ccco2)CC1)Nc1cc(C(F)(F)F)ccc1Cl
/ | 1.7 | Cc1ccccc1NC(=O)C1CCCN1S(=O)(=O)c1cccc2cccnc12 (stereo not given)
/ | -0.5 | CCOC(=O)c1cc(S(=O)(=O)N2CCN(C(=O)OCC)CC2)cn1C
i | 0.7 | Cc1cn2c(-c3ccc(Cl)cc3)nnc2s1

# The last three records of the part above come first, to join the parts:
VCAM-1 rise | 26S disassembly | structure
/ | 1.7 | Cc1ccccc1NC(=O)C1CCCN1S(=O)(=O)c1cccc2cccnc12 (stereo not given)
/ | -0.5 | CCOC(=O)c1cc(S(=O)(=O)N2CCN(C(=O)OCC)CC2)cn1C
i | 0.7 | Cc1cn2c(-c3ccc(Cl)cc3)nnc2s1
/ | 3.2 | COc1ccccc1-c1cc(C(=O)N2CCN(c3ccccc3OC)CC2)no1
/ | -0.2 | Cc1ccc(NC(=O)c2nc[nH]c2C(=O)N2CCCCC2)c(C(=O)c2ccccc2)c1
/ | -0.3 | CC(C)(C)n1ncc2c(=O)n(CC(=O)NCc3ccccc3Cl)cnc21
i | -1.2 | CCCCOc1cc(=O)[nH]c(=O)[nH]1
/ | -0.7 | CCOC(=O)N1CCN(C(=O)CCS(=O)(=O)c2ccc(Br)s2)CC1
/ | -5.2 | CCN1C(=O)CC(c2ccco2)Sc2ccccc21 (stereo not given)
i | -0.6 | Cc1nc2ccc(C(=O)c3ccccc3)cc2[nH]1
/ | 0.7 | CC1CCN(C(=O)c2cc(-c3ccccc3O)on2)CC1
i | -4.1 | CCOC(=O)c1[nH]c2ccc(C)cc2c1NC(=O)CN1CCCCC1
/ | 0.1 | CC(C)C(NS(=O)(=O)c1ccc2c3c(cccc13)C(=O)N2)C(=O)O (stereo not given)
i | -0.4 | COc1ccc(C(=O)OC(COc2ccccc2)Cn2ccnc2)cc1 (stereo not given)
i | 0.9 | CS(=O)(=O)N(CC(=O)O)c1cccc(Cl)c1
i | -1.2 | Cc1cc(C)c(S(=O)(=O)N(C)CC(N)=O)c(C)c1
i | 0.5 | O=C(Nc1ccc(Cl)cn1)c1cccnc1
i | -0.3 | CCCCOc1ccc(OCCCN2CCOCC2)cc1
/ | 6.3 | COC(=O)c1ccc(CSc2ncnc3c2nnn3-c2ccc(F)cc2)o1
/ | -0.4 | CCOC(=O)C1C(=O)CC(C)(O)C(C(=O)OCC)C1c1ccc(Br)o1 (stereo not given)
/ | 0.2 | O=C(Cn1cnc2c(cnn2-c2ccc(F)cc2)c1=O)NCc1ccco1
i | 0.2 | Cc1noc(NS(=O)(=O)c2ccc(N)cc2)c1C
i | -0.8 | CN(C)c1oc(-c2ccccc2F)nc1C#N
i | 2.9 | Cc1nn(C(=O)c2ccccc2)c2c1C(=O)CC(C)(C)C2
/ | -3.0 | O=C(NCCCN1CCN(c2ccccc2F)CC1)C1CCN(S(=O)(=O)N2CCOCC2)CC1
/ | 0.0 | COCCNC(=O)C1CC(=O)N(c2ccc(F)c(Cl)c2)C1 (stereo not given)
